KCNQ2 inh – KCNQ2 potassium channel inhibitors, primary screen, cell-based, CHO-K1, FluxOR thallium flux, B-score (AID 2156). Potassium voltage-gated channel subfamily KQT member 2 (Rattus norvegicus), O88943. 20 min; hits give low values; only compounds with negative scores are shown here; some inactives read as strong as hits. B-score at 10 µM. 310,000 tested, 1.1% active;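 active = fluorescence ratio B-score at most minus 3 library SDs, with starting brightness B-score within 2 library SDs, cut at about -5.5 in these data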
Target sequence (O88943 whole entry, looked up): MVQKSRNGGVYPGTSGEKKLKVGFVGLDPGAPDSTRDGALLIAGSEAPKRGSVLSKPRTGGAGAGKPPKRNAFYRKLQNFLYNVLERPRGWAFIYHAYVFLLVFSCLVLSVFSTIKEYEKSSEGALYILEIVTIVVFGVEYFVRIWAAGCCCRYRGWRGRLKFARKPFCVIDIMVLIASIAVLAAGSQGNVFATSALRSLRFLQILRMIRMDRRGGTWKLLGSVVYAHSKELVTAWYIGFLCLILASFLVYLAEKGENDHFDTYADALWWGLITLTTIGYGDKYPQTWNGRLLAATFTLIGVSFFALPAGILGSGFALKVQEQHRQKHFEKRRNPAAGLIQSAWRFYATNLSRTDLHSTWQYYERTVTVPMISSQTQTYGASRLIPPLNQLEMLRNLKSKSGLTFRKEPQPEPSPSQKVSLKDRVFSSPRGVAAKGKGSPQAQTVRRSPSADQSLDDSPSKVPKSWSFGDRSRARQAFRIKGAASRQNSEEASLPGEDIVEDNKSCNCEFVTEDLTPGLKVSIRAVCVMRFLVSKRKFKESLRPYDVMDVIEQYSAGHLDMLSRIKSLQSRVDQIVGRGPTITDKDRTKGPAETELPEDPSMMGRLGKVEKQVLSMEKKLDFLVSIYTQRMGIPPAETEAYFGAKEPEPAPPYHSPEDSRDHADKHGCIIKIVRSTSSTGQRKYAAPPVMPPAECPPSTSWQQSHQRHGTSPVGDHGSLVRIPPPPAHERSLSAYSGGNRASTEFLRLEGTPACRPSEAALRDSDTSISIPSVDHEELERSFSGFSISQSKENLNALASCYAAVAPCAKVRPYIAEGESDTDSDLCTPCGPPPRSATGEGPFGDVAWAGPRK
KCNQ2 inh baseline – also measured in KCNQ2 inh; calls as there; B-score; measured here: initial fluorescence intensity artifact check;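 brightness before thallium and not channel activity; 0 = typical well and far values either way flag optical interference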
An asterisk follows results filed as active; i = inactive. These rows are one share of the data. The share of hits here may be higher or lower than overall.

KCNQ2 inh	KCNQ2 inh baseline	mol
i	-0.6	Cc1sc(N/N=C/c2cccnc2)nc1-c1ccc(Cl)cc1
i	2.49	O=C(CN1CC[n+]2c(-c3cccs3)csc21)c1ccc(Br)cc1
i	-0.2	CN1CCN(S(=O)(=O)c2ccc(NC(=O)C(C)(C)C)cc2)CC1
i	-0.09	CCCS(=O)(=O)c1nc(S(=O)(=O)c2ccc(C)cc2)c(NCCCN2CCOCC2)s1
i	0.01	COC(=O)c1sccc1NC(=O)CSc1nnnn1-c1ccccc1C
i	-0.44	CC1=C(C(=O)O)N2C(=O)C(NC(=O)c3ccn(C)n3)C2SC1 (configuration not stated)
i	-0.39	Cc1ccc(N(CC(=O)NC2CCCC2)C(=O)c2nsc(Cl)c2Cl)cc1
i	1.14	Cc1c(C=N)c(O)n(C)c(=O)c1C#N

The list goes on.
KCNQ2 inh	KCNQ2 inh baseline	mol
i	1.21	CCOC(=O)CNC(=O)Cn1cnc2c(nnn2-c2ccc(OC)cc2)c1=O
i	-0.05	CCc1cc2c(=O)c(-c3ccc4c(c3)OCCO4)coc2cc1OC(=O)c1ccco1
i	0.13	CCOC(=O)C1=C(CN2CCN(CCC#N)CC2)NC(=O)NC1c1ccc2c(c1)OCO2 (configuration not stated)
i	0.38	CCOC(=O)/C(C#N)=C/Nc1cc(F)ccc1C
i	0.59	Cc1cc(C)n(CC(=O)n2c3ccccc3c3ccccc32)n1
i	-0.28	COC(=O)c1cc(=O)n(C2CC2)c(=NC2CC2)s1
i	1.65	CCCCSc1nnc([C@@H]2CCCN2C(=O)OC(C)(C)C)o1
i	-0.29	COc1ccc(CCN=C(N)NS(=O)(=O)c2ccc(C)cc2)cc1

Shown in markdown: part of the list above
| mol | KCNQ2 inh | KCNQ2 inh baseline |
| --- | --- | --- |
| CCCS(=O)(=O)c1nc(S(=O)(=O)c2ccc(C)cc2)c(NCCCN2CCOCC2)s1 | i | -0.09 |
| COC(=O)c1sccc1NC(=O)CSc1nnnn1-c1ccccc1C | i | 0.01 |
| CC1=C(C(=O)O)N2C(=O)C(NC(=O)c3ccn(C)n3)C2SC1 (configuration not stated) | i | -0.44 |

Next results follow.
KCNQ2 inh	KCNQ2 inh baseline	mol
i	0.9	Cc1ccc(C(=O)CC2(O)C(=O)Nc3ccccc32)s1 (configuration not stated)
i	1.68	O=C1c2ccccc2NC2CCCCC12 (configuration not stated)
i	-0.28	C=CCOc1ccc(C(=O)CC)cc1OC
i	1.41	Cc1cc(NC(=O)c2cccc(S(=O)(=O)N3CCOCC3)c2)c2ccccc2n1
i	0.39	COc1ccc2cc(CCNC(=O)c3ccc(Br)o3)c(=O)[nH]c2c1
i	0.48	COC(=O)c1ccc(OC(=O)c2ccco2)cc1
i	-0.01	COc1ccc(OC)c(N(CC(=O)NC2CCCCCC2)S(=O)(=O)c2ccc(C)cc2)c1
i	-0.72	CC(=O)N1CCc2cc(S(=O)(=O)CCC(=O)N3CCN(c4cc(C)ccc4C)CC3)ccc21

New compounds follow.
KCNQ2 inh	KCNQ2 inh baseline	mol
i	0.69	CCc1cc(=O)oc2c(C)c(OC(C)C(=O)NCC3CCC(C(=O)O)CC3)ccc12 (configuration not stated)
i	1.97	O=S(=O)(Cc1ccccc1)NCCc1cccc(Cl)c1
i	0.03	CN1CCCN(C(=O)c2cc(-c3ccc(Cl)c(Cl)c3Cl)nc3ccccc23)CC1
i	0.2	COC(=O)c1ccc(NC(=O)c2cc(Cl)ccc2OC)cc1
i	-0.08	CCc1cccc(NC(=O)CCNC(=O)Cn2ccc3ccccc3c2=O)c1
i	-0.05	Clc1ccc(CSc2nnc(-c3ccncc3)o2)cc1
i	0.17	COc1ccc(N(CC(=O)NC2CCCC2)C(=O)c2csnn2)cc1
i	-0.67	O=S1(=O)C=C(SCc2ccccc2)Nc2ccccc21

Going on with the list:
KCNQ2 inh	KCNQ2 inh baseline	mol
i	-0.9	CC1CCN(c2ccc3nnc(CCC(=O)Nc4ccc(F)c(F)c4)n3n2)CC1
i	-1.49	CC(Cc1ccco1)NC(=O)c1ccc(C(F)(F)F)cc1 (configuration not stated)
i	0.33	COc1ccc(NC(=O)Nc2c(C)noc2-c2ccccc2)cc1
i	-0.48	CC1CCCN(c2ncnc3c2cnn3-c2ccccc2)C1 (configuration not stated)
i	0.26	CCC(=O)N1CCN(c2ccc(Cl)cc2NC(=S)NC(=O)c2ccco2)CC1
i	-0.3	COc1ccc(C2SCC(=O)N2c2ccccc2)cc1 (configuration not stated)
i	-1.22	Cc1cc(NS(=O)(=O)c2ccc(Nc3nc(-c4ccc(O)cc4)cs3)cc2)no1
-8.36*	-1.03*	Cc1ccc(NC(=S)N(C)C(c2ccccc2)c2ccccc2)cc1C

Single records, as listed above:
CC(Cc1ccco1)NC(=O)c1ccc(C(F)(F)F)cc1 (configuration not stated) is listed as KCNQ2 inh: i; KCNQ2 inh baseline: -1.49
CCC(=O)N1CCN(c2ccc(Cl)cc2NC(=S)NC(=O)c2ccco2)CC1 is listed as KCNQ2 inh: i; KCNQ2 inh baseline: 0.26

By substructure: those above with a cyano group
KCNQ2 inh	KCNQ2 inh baseline	mol
i	1.14	Cc1c(C=N)c(O)n(C)c(=O)c1C#N
i	0.13	CCOC(=O)C1=C(CN2CCN(CCC#N)CC2)NC(=O)NC1c1ccc2c(c1)OCO2 (configuration not stated)
i	0.38	CCOC(=O)/C(C#N)=C/Nc1cc(F)ccc1C

Later entries.
KCNQ2 inh	KCNQ2 inh baseline	mol
i	1	Oc1ccccc1-c1nc2cnccn2c1Nc1ccc2c(c1)OCCO2
i	-1.18	Cc1ccccc1NC(=O)NCCc1c[nH]c2ccccc12
i	0.92	CC(C)Oc1ccc(C(=O)N(CN2CCCC2=O)c2ccc(F)cc2)cc1
i	0.46	O=C(/C=N/O)Nc1ccccc1C(=O)O
i	1.96	CCN1C(=S)N[C@@H](c2cccc(F)c2)C(C(=O)OC)=C1C
i	-0.26	COc1ccc(CCn2c(C)cc(C(=O)CSc3nnnn3C)c2C)cc1
i	1.42	O=C1c2ccccc2-c2nc3ccccc3n21
i	-0.48	COc1ccccc1N(CCN1C(=O)c2cccc3cccc(c23)C1=O)C(=O)c1ccncc1

New compounds follow:
KCNQ2 inh	KCNQ2 inh baseline	mol
i	-1.45	CCS(=O)(=O)Nc1ccc(C(=O)CC2(O)C(=O)Nc3ccc(Br)cc32)cc1 (configuration not stated)
i	0.06	CCOC(=O)N1CCN(Cc2nc3ccc([N+](=O)[O-])cc3c(=O)n2-c2ccccc2F)CC1
i	-1.19	CCOC(=O)c1cccnc1SCC(=O)N(C)c1ccccc1
i	3.03	Cc1ccccc1OCCC(=O)OCC(=O)Nc1ccc(C(N)=O)cc1
i	-0.7	O=C1Nc2ccccc2C1C(C[N+](=O)[O-])c1ccccn1 (configuration not stated)
i	0.04	CN(C)S(=O)(=O)c1ccc2c(c1)C(=NO)c1cc(S(=O)(=O)N(C)C)ccc1-2
i	-1.19	COc1ccccc1NC(=S)NC(=O)C(C)C
i	0.3	CCOC(=O)N1CCC(NC(=O)C2=CCN(S(=O)(=O)c3ccc(F)cc3)CC2)CC1

(next part)
KCNQ2 inh	KCNQ2 inh baseline	mol
i	-0.01	COC(=O)c1[nH]c2cc(C)ccc2c1NC(=O)CN1CCc2cc(OC)c(OC)cc2C1
i	2.02	O=C(NCCCn1ccnc1)/C(=C\c1ccccc1F)NC(=O)c1ccccc1
i	0.29	Cc1ccc(-n2c(C)nc3c(cnn3-c3ccc(C)c(C)c3)c2=O)cc1C
i	0.66	CCc1ccccc1NC(=O)C1CCN(S(=O)(=O)c2ccc3c(c2)N(C(C)=O)CCO3)CC1
i	-0.49	COc1ccc([N+](=O)[O-])cc1NC(=O)c1ccc(N(Cc2ccccc2C)S(C)(=O)=O)cc1
i	2.07	Cc1cc(C)cc(NS(=O)(=O)c2ccc3[nH]cc(C(=O)NCc4ccco4)c(=O)c3c2)c1
i	1.6	COc1ccc(-c2cn3c(C)c(C(=O)N4CCN(c5ccccc5F)CC4)sc3n2)cc1
i	-0.79	COc1ccc(N=C2S/C(=C\c3cc(C)n(C)c3C)C(=O)N2C)cc1

Continued.
KCNQ2 inh	KCNQ2 inh baseline	mol
i	0.73	NC(=O)Cn1nc2sc3ccccc3n2c(=O)c1=O
i	1.43	O=C(O)C1=C(OCc2ccccc2)C(=O)NCC1
i	-1.5	COc1ccc(NC(=O)CCc2nc(-c3ccccc3F)no2)cc1
i	0.17	COc1ccc(N(CC(=O)Nc2cccnc2)S(=O)(=O)c2ccccc2)cc1OC
i	1.24	C/C(=N\OCC(=O)Nc1ccccc1Br)c1cccs1
i	-1.91	Cc1ccc(Nc2nc(CSc3nnnn3C)cs2)cc1
i	1.76	CC1c2cc3c(cc2CCN1C(=O)c1ccc(Cl)cc1)OCCCO3 (configuration not stated)
i	-1.11	O=C(NCc1cccs1)c1cc2c(s1)-c1ccccc1OC2

Remaining list, next part:
KCNQ2 inh	KCNQ2 inh baseline	mol
i	1.3	CN(CC(=O)Nc1nccs1)S(=O)(=O)c1ccc(F)cc1
i	-1.21	CCN(CCNCC(O)COc1ccccc1C(C)C)c1cccc(C)c1 (configuration not stated)
i	-0.04	Cc1ccc(OCCC(=O)OCC(=O)Nc2ccc3c(c2)OCCO3)cc1
i	0.04	O=c1c2ccccc2c2ccccc2c(=O)n1-c1ccccc1
i	1.51	Cc1ccc(OCc2nc(C#N)c(N3CCCC3)o2)cc1
i	-1.02	CSc1nccc(Nc2ccccc2)c1C#N
i	1.01	CC1CCc2nc(N)c(C#N)c(-c3ccncc3)c2C1 (configuration not stated)
i	-1.52	CC(=O)C1C(c2ccc([N+](=O)[O-])cc2)C2C(C)=NN=C2CC1(C)O (configuration not stated)

Next part:
KCNQ2 inh	KCNQ2 inh baseline	mol
i	1.02	COc1ccc(CCN2CC(C(=O)NCCN3CCNC3=O)CCC2=O)cc1 (configuration not stated)
i	0.11	Cc1cnc(C(=O)OCC(=O)N2CCN(C(=O)c3ccco3)CC2)cn1
i	2.35	O=C(Nc1ccncc1)c1ccccc1Cl
i	1.31	O=C(NCc1ccccc1)C(c1ccccc1)N(C(=O)c1csnn1)c1ccccc1 (configuration not stated)
i	-1.94	CCC(C)S(=O)(=O)c1snnc1C (configuration not stated)
i	0.23	CCOc1ccc(C(=O)Nc2cccc3cccnc23)cc1
i	-0.12	Cc1nc2ccccc2c(=O)n1/N=C/c1ccc(C(C)C)cc1
i	0.15	O=C1C2C3C=CC(C3)C2C(=O)N1Cc1ccc(CN2C(=O)C3C4C=CC(C4)C3C2=O)cc1 (configuration not stated)

Later entries:
KCNQ2 inh	KCNQ2 inh baseline	mol
i	0.44	CCCC(=O)Nc1nnc(C2CCCO2)s1 (configuration not stated)
i	-0.04	COc1cnc(-c2ccccn2)[nH]c1=O
i	-0.03	CC1Cc2ccccc2N1c1nc(C2CC2)nc2c1nnn2Cc1ccccc1 (configuration not stated)
i	1.23	Cc1cccc(OCCCC(=O)Nc2nccs2)c1C
i	-0.19	COc1cc(C(CCN2CCOCC2)c2c(OC)cc(OC)c3c(C)cc(=O)oc23)cc(OC)c1OC (configuration not stated)
i	-0.05	Cc1ccc(C(=O)CSc2nc(N)cc(=O)[nH]2)cc1
i	-1.31	Cc1ccc(CNC(=O)CSc2nnc3c(n2)[nH]c2ccc(F)cc23)cc1
i	-0.12	COc1ccccc1/C=C(\NC(=O)c1ccc(OC)c(OC)c1)C(=O)Nc1ccc([N+](=O)[O-])cc1

Next part
KCNQ2 inh	KCNQ2 inh baseline	mol
i	-1.76	Cc1cccc(C(=O)NCC(=O)N2CCOCC2)c1
i	-0.87	COCCN(C(=O)c1ccco1)c1nnc(-c2ccc(OC)cc2)s1
i	-1.05	CN(C)N1C(N)=C(C#N)C(c2ccccc2)C2=C1CCCC2=O (configuration not stated)
i	-0.74	CCOP(=O)(c1ccccc1Cl)C1(O)CCCCC1 (configuration not stated)
i	0.88	Cc1ccn(CC(C)C(=O)O)n1 (configuration not stated)
i	-1.08	CCOC(=O)C1CCCN(C(=O)c2cc3nc(-c4ccc5c(c4)OCO5)cc(C(F)(F)F)n3n2)C1 (configuration not stated)
i	-0.11	O=C(Nc1ccccc1C(=O)NC(Cc1c[nH]c2ccccc12)C(=O)O)c1ccccc1 (configuration not stated)
i	-0.46	NC(=O)NCc1ccccc1

More entries:
KCNQ2 inh	KCNQ2 inh baseline	mol
i	-1.32	COc1ccc(NC(=O)CN(C)Cc2cccs2)cc1Cl
i	1.81	Cc1ccc(S(=O)(=O)N2CCc3ccccc3C2)cc1C
i	0.67	CC1=CCC2C(=O)N(c3ccc(C(=O)N4CCCCCC4)cc3)C(=O)C2C1 (configuration not stated)
i	-0.03	COc1ccc(CCNC(=O)CS(=O)(=O)c2cn(CC(=O)N3CCOCC3)c3ccccc23)cc1OC
i	-0.3	Cc1c(NS(=O)(=O)c2ccc3c(c2)OCCO3)cccc1-c1nc2cccnc2s1
i	1.13	O=C(NCCc1cn2ccccc2n1)c1ccccc1F
i	-0.68	N#CC1=C(N)N(c2ccc(Br)cc2)C2=C(C(=O)CCC2)C1c1cccnc1 (configuration not stated)
i	-0.04	O[C@@H](CNC[C@H](O)c1ccccc1)c1ccccc1

Other structures follow:
KCNQ2 inh	KCNQ2 inh baseline	mol
i	0.96	COc1ccc(CC(=O)N2CCN(c3cccc(Cl)c3)CC2)cc1OC
i	0.22	CC(=O)[C@H]1[C@@H]2C(=O)N(c3cccc(Cl)c3)C(=O)[C@@H]2[C@H]2c3ccccc3C=CN21
i	-2.32	Cc1ccc(OCCNC(=O)c2cncc(Br)c2)cc1C
i	0.07	O=C1c2ccccc2C(O)N1c1ccc(Cl)cc1 (configuration not stated)
i	-0.4	CN(C(=O)c1ccccc1)c1nc2ccccc2s1
i	-1.37	CN1CCN(C(=O)/C=C/c2ccc(Cl)cc2)CC1
i	1.35	CCCCN(C(=O)c1cc(S(=O)(=O)N2CCOCC2)ccc1Cl)c1c(N)n(CC(C)C)c(=O)[nH]c1=O
i	-1	COc1cc(NS(=O)(=O)c2ccc(N/C=C(\C#N)c3nc4ccccc4o3)cc2)nc(OC)n1
i	-2.39	CCOC(=O)c1sc(NC(=S)NC(=O)c2ccccc2)c(C(=O)OCC)c1C

Source: PubChem BioAssay (Johns Hopkins Ion Channel Center)
